Screening results deposited in PubChem BioAssay by Fisher Drug Discovery Resource Center.
NPYLR7 agonist: agonists of mosquito NPYLR7 receptor, primary screen, cell-based, Aedes aegypti, calcium fluorescence, mosquito biting behavior; Aedes aegypti neuropeptide Y-like receptor 7 (NPYLR7); 270,000 compounds, 0.15% hits; activation, % at 10 µM; HEK293T NPYLR7/Galpha15, GCaMP6s calcium fluorescence; in the data active = activation above about 40%;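 also: 0% = vehicle and 100% = reference agonist at the receptor; some compounds past the cut are filed as inactive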
NPYLR7 agonist max-min: recorded beside NPYLR7 agonist, whose call it bears; activation, %; measured here: Max-Min RFU normalised activation; some inactives read as strong as hits;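 span of the calcium signal over five minutes; 0% = vehicle and 100% = native peptide agonist; compound fluorescence can raise it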
The depositor's hits bear a star; & = joins results of further samples. These rows are one share of the data (hit frequency here may not be typical).

SMILES	NPYLR7 agonist	NPYLR7 agonist max-min
COc1ccccc1-c1ccc(N2CCC(C(=O)NC3CCCCCC3)CC2)nn1	-10	-13
Cc1ccc(C)c(N(C)C(=O)c2ccc3nc(C(F)F)[nH]c3c2)c1	2	1
CCOC(=O)c1cc(C(C)(C)C)n(C2CCN(C(=O)CCCNC(=O)OCc3ccccc3)CC2)n1	-6	-12
O=C(c1ccc(F)cc1)N1CCCC(N2CCN(CCOc3ccccc3)CC2)C1 (stereo not drawn)	10	18
Cc1cc(C(=O)NCCc2nc3ccccc3[nH]2)n[nH]1	-7	-9
COCCN(CC(=O)N1CC(=O)N(c2ccc(F)cc2)C1)C(=O)Nc1ccc(F)cc1F	3	14
O=C(NC1CCN(CC(F)F)CC1)N1Cc2ccccc2C1	-4	-3
Cc1[nH]c2ccccc2c1S(=O)(=O)CCNC(=O)Nc1ccccc1	4	2
Clc1ccccc1-c1cc(C2CCN(Cc3cccnc3)CC2)[nH]n1	2	1
NC(=S)N1N=C(c2ccc(Cl)cc2)CC1c1ccco1 (stereo not drawn)	0	6
O=C(Nc1nnc(-c2ccc(F)cc2)s1)C(Cc1ccccc1)NS(=O)(=O)c1ccccc1 (stereo not drawn)	-11	-3
COc1ccc(CC(=O)N2C[C@@H](CO)[C@@H]3Oc4ccc(Cl)cc4[C@@H]32)cc1	1	11
COC(=O)[C@@H]1C[C@H](NC(=O)c2cnc3cccc(C)n3c2=O)CN1C	1	1
COc1ccccc1N1CCN(c2ccc(NC(=O)c3ccc4ccccc4c3)cc2C(=O)NC(C)C)CC1	19	33
Cc1sc2ncnc(N3CCCC(CO)C3)c2c1C (stereo not drawn)	-3	1
CC(C)Oc1ccc(C(O)=C2C(=O)C(=O)N(CCCN(C)C)C2c2cccs2)cc1 (stereo not drawn)	1	1
O=C(c1ccccc1)N1N=C(C(F)(F)F)CC1(O)c1ccccc1 (stereo not drawn)	5	2
Cc1[nH]n(-c2ccccc2)c(=O)c1/C=N\Nc1ccc([N+](=O)[O-])cc1	-2	-8
CC(=O)N(C)c1ccc(N=Nc2c(C)[nH]n(-c3ccccc3)c2=O)cc1	-3	-9
CSc1ccccc1OCc1cc(C(=O)N2CCCCC2c2nccs2)no1 (stereo not drawn)	9	14
Cn1cccc1C1CC(c2ccc(F)cc2)=NN1C(=O)CN1CCN(c2ccccc2F)CC1 (stereo not drawn)	19	11
COc1ccc(S(=O)(=O)NCC2CCCN(C(=O)c3ccsc3)C2)cc1 (stereo not drawn)	11	2
Cc1cccc(C(C2Sc3nc(-c4ccco4)nn3C2=O)N2CCC(C(N)=O)CC2)c1 (stereo not drawn)	0	-3
CN1CCC(C)(C(=O)Nc2cccc(C#N)c2)C1 (stereo not drawn)	4	3
O=C(CSc1nnnn1C1CCCCC1)N1CCOCC1	17	12

An excerpt of the results above, as a working copy:
SMILES	NPYLR7 agonist	NPYLR7 agonist max-min
COc1ccccc1-c1ccc(N2CCC(C(=O)NC3CCCCCC3)CC2)nn1	-10	-13
Cc1ccc(C)c(N(C)C(=O)c2ccc3nc(C(F)F)[nH]c3c2)c1	2	1
CCOC(=O)c1cc(C(C)(C)C)n(C2CCN(C(=O)CCCNC(=O)OCc3ccccc3)CC2)n1	-6	-12
O=C(c1ccc(F)cc1)N1CCCC(N2CCN(CCOc3ccccc3)CC2)C1 (stereo not drawn)	10	18
Cc1cc(C(=O)NCCc2nc3ccccc3[nH]2)n[nH]1	-7	-9
COCCN(CC(=O)N1CC(=O)N(c2ccc(F)cc2)C1)C(=O)Nc1ccc(F)cc1F	3	14

Going on with the list:
SMILES	NPYLR7 agonist	NPYLR7 agonist max-min
Cc1[nH]c(=O)n(C)c(=O)c1CCC(=O)Nc1ccccc1C(F)(F)F	-12	-15
O=C(NCC1CN(c2ccc3c(c2)OCO3)C(=O)O1)c1ccco1 (stereo not drawn)	5	2
COc1cc(CNc2nn[nH]n2)cc(Br)c1OCc1ccccc1Cl	-11	-13
Cn1c(CCC(=O)Nc2cnc3n2CCCC3)nc2cccnc21	12	11
COc1cc(CNC(=O)N2CCN(S(=O)(=O)c3ccc(Cl)s3)CC2)cc(OC)c1OC	0	3
CC(=O)N1N=C(c2c(-c3ccccc3)c3cc(Cl)ccc3[nH]c2=O)CC1c1ccc(N(C)C)cc1 (stereo not drawn)	-9	-11
Cc1cnc(SCC2CCCO2)nc1C1CCCN(C(=O)/C=C/c2ccc(F)c(F)c2)C1 (stereo not drawn)	17	3
CC(NC(=O)CSc1n[nH]c(-c2ccccc2F)n1)c1ccco1 (stereo not drawn)	-1	-4
CCC1CN(c2ncnc3sccc23)CCC(=O)N1Cc1ccccc1 (stereo not drawn)	7	-1
Cc1cccc(-n2ncc3c2CCCC3NC(=O)C(=O)c2ccco2)c1C (stereo not drawn)	19	11
CCOC(=O)N1CCN(c2cc(-c3ccccc3)ncn2)CC1	-4	-5
Cc1cccc(NC(=O)[C@@H]2CCCN2C(=O)COc2ccc(F)c(Cl)c2)n1	-4	-6
COc1ncccc1[C@@H]1C[C@H](NC(=O)c2ccccc2)C[C@H](C(C)C)O1	-2	-4
Cc1ccc(SC2CN(C(=O)OC(C)(C)C)CCC2=O)cc1 (stereo not drawn)	-1	-2
CC(C)(C)c1nnc(N/N=C\c2cccs2)n(N)c1=O	20	21
CC(=O)Oc1ccccc1C(=O)N1CCC(c2nc(-c3cccc(C)c3)no2)CC1	3	-2
CCOc1c(CC)cnc2c1c(=O)n(CC(=O)Nc1ccc(C)cc1C)c(=O)n2C	-1	-3
COc1cc(C(=O)NCc2ccc(-c3ncc(-c4ccc(F)cc4)[nH]3)cc2)cc(Cl)n1	-3	9
CCN(C(=O)COc1ncnc2sc3c(c12)CCC3)C1CCS(=O)(=O)C1 (stereo not drawn)	4	4
O=C(c1ccc(=O)[nH]n1)N1CCN(S(=O)(=O)c2ccc(C3CCCCC3)cc2)CC1	2	1
COCCN1C(=O)C=C(Nc2cccc(OC)c2)C1=O	0	5
COc1ccc(-n2ccnc2CN2CCC(N)(C(=O)O)C2)cc1 (stereo not drawn)	20	16
Cc1ccc(N2CC(C(=O)N3CCN(c4ncnc5c4nnn5-c4ccccc4)CC3)CC2=O)cc1 (stereo not drawn)	-2	-12
CCN(CC)CCOC(=O)C1(C2CCCCC2)CCCCC1	-6&-11&6&0&-4	-14&-12&-2&-22&-7
CC(NC(=O)c1cc(Br)c[nH]1)c1nnc2n1CCC2 (stereo not drawn)	5	0
SMILES	NPYLR7 agonist	NPYLR7 agonist max-min
CC(C)N(Cc1nccn1Cc1ccccc1)C(=O)c1cccc(F)c1	4	11
CC1(C(=O)Nc2cccc3ncccc23)CCN1C(=O)CC(c1ccccc1)c1ccccc1 (stereo not drawn)	-2	-3
O=S(=O)(CCSc1ccc(Cl)cc1)Oc1ccccc1	5	6
CCN(Cc1ccc(Cl)s1)S(=O)(=O)Cc1cc(C)no1	1	-2
COc1ccc(CNS(=O)(=O)c2cn(C)c(=O)n(C)c2=O)cc1	2	3
C=CCN(Cc1ccc(Cl)s1)C(=O)COC(=O)C1=COCCO1	1	9
CC1=C(C(=O)N2CCOC(Cc3cccc(C(F)(F)F)c3)C2)OCCO1 (stereo not drawn)	16	2
COC(=O)Cn1c(=NC(=O)c2cccc([N+](=O)[O-])c2)sc2c(C)cc(C)cc21	4	2
CC(C)OC(=O)CSc1nc2ccccc2c(=O)n1-c1ccccc1	-2	-3
CCCNC(=O)N1CCN(c2ccc(OCC)cc2)C(=O)C1C (stereo not drawn)	-4	8
O=C(NC1CCN(c2ccc(C(F)(F)F)cn2)CC1)c1ccccc1	-2	-4
NC(=O)c1nc(-c2ccc(OCc3ccccc3)cc2)nc2c1[nH]c(=O)n2-c1ccccc1F	-4	-8
CCN(CCOc1ccc(OC)cc1)C(=O)c1ncc(F)cc1F	1	7
C=CCOc1ccc(C2c3c(oc4ccc(C)cc4c3=O)C(=O)N2c2nccs2)cc1 (stereo not drawn)	-1	0
Cc1nn(C)c(C)c1CN(C1CC1)C1Cc2ccccc2C1	-3	0
Cc1ccc(-n2nnnc2CNS(=O)(=O)c2ccc3ccccc3c2)cc1C	4	2
COc1ccc(NC(=O)/C(=C\c2cccnc2)NC(=O)c2ccsc2)cc1	-4	-4
O=C1C[C@H]2CC[C@@H](CN1)N2C(=O)c1ccc2ncsc2c1	1	-4
CC(C)(NC(=O)c1ccc(C(N)=O)cn1)c1c(Cl)cccc1Cl	5	2
CN(C)Cc1cc(C(C)(C)C)cc(C(C)(C)C)c1O	5	-1
O=C(N[C@H]1COC[C@@H]1N1CCCCC1)c1cnn2c1CCCC2	-2	-3
CN(C)S(=O)(=O)c1ccc(S(=O)(=O)N(C)c2cccc(Br)c2)cc1	5	5
O=C(Cn1c2ccccc2n2nc(-c3ccco3)nc12)c1ccccc1	0	-3
Cc1cc(CC(C)NC(=O)c2cc(Cn3ccc4ccccc43)[nH]n2)n[nH]1 (stereo not drawn)	0	2
NC1(CNC(=O)c2coc3c2C(=O)CCC3)CCCCC1	14	7

Pulled by compound from above:
SMILES	NPYLR7 agonist	NPYLR7 agonist max-min
O=C(c1ccc(=O)[nH]n1)N1CCN(S(=O)(=O)c2ccc(C3CCCCC3)cc2)CC1	2	1
CCC1CN(c2ncnc3sccc23)CCC(=O)N1Cc1ccccc1 (stereo not drawn)	7	-1

More records follow:
SMILES	NPYLR7 agonist	NPYLR7 agonist max-min
O=S(=O)(Nc1cc(Cl)cc(Cl)c1)c1cc(Cl)ccc1Cl	5	4
CN(C)CCOc1ccccc1CN1CCC2(CCOCC2)CC1	-2	-2
CCOc1ccc(-n2c(=O)c3ccc(Cl)cc3n(CC(=O)NCc3ccco3)c2=O)cc1	18	19
COc1ccc(Cn2c(C3CCCCC3)nc3oc4ccccc4c(=O)c3c2=O)cc1	3	0
O=C(CCS(=O)(=O)c1ccc(Cl)cc1)NCCC1=CCCCC1	5	4
CCCNC(=O)C1CCCN(C(=O)Nc2cnc(C(C)(C)C)nc2)C1 (stereo not drawn)	-4	-5
CS(=O)(=O)N1Cc2ccccc2CC1C(=O)OCC(=O)NCc1ccccc1 (stereo not drawn)	-8	-11
CCCCN(C)C(=O)c1sc(=O)n(Cc2ccc3c(c2)OCO3)c1C	-9	-3
COCCNC(=O)C(C1CCCC1)N1CCN(C(=O)c2cc(OC)cc(OC)c2)CC1 (stereo not drawn)	-7	-9
CCCN1CC(NC(=O)c2nc3ccccc3[nH]c2=O)CC1=O (stereo not drawn)	-1	-5
COc1ccc(Cl)c(NS(=O)(=O)c2ccc3c(c2)N(C)CC3)c1	1&-15	3&-21
CCOC(=O)C1=C(C)N(c2ccc3c(c2)OCCO3)C(=S)NC1c1ccc(F)cc1 (stereo not drawn)	0	-2
O=C(NCc1ccco1)N1CCC(C(=O)N(Cc2cccs2)CC2CCCO2)CC1 (stereo not drawn)	4	2
CCN(CC(=O)NC(C)(C)C)Cc1ccccn1	-10	-11
Cc1ccc(S(=O)(=O)C(C#N)=Cc2cccc(F)c2)cc1	-1	5
O=C(NCc1ccc(F)cc1)c1nnc(CN2CCCC2)s1	6	4
Cn1ccc(-c2nnc(N)o2)n1	2	0
Cc1ccc2nc(CCCNC(=O)c3ccc(C4CCCO4)s3)oc2c1 (stereo not drawn)	-2	-3
Cc1oc(-c2ccc(Cl)cc2)nc1CN1CCCCC1c1nccn1C (stereo not drawn)	3	5
Cc1ccccc1CN1CCN2C(C(=O)NC3CCc4ccccc43)=COC2=NC1=O (stereo not drawn)	-2	-4
Fc1ccc(-c2csc(=NCC3CCCO3)n2N=Cc2ccc3c(c2)OCCO3)cc1 (stereo not drawn)	-3	5
CCn1ccc(C(=O)N(C)C2Cc3ccccc3C2)cc1=O	9	5
CCN1CCCC1CNC(=O)c1cnn(-c2ccccc2)n1 (stereo not drawn)	-1	-2
Cc1cc(Nc2ccc3c(n2)C(=O)N(CC(=O)NCC2CCCCC2)C3)n(C)n1	4	0
C#CCn1c(O)c(N=NC(=O)CNC(=O)c2ccccc2O)c2ccccc21	-8	-9

Structures above with bromine (3):
SMILES	NPYLR7 agonist	NPYLR7 agonist max-min
COc1cc(CNc2nn[nH]n2)cc(Br)c1OCc1ccccc1Cl	-11	-13
CC(NC(=O)c1cc(Br)c[nH]1)c1nnc2n1CCC2 (stereo not drawn)	5	0
CN(C)S(=O)(=O)c1ccc(S(=O)(=O)N(C)c2cccc(Br)c2)cc1	5	5

A second format for part of the listing above:
compound | NPYLR7 agonist | NPYLR7 agonist max-min
O=S(=O)(Nc1cc(Cl)cc(Cl)c1)c1cc(Cl)ccc1Cl | 5 | 4
C#CCn1c(O)c(N=NC(=O)CNC(=O)c2ccccc2O)c2ccccc21 | -8 | -9
COc1ccc(-n2ccnc2CN2CCC(N)(C(=O)O)C2)cc1 (stereo not drawn) | 20 | 16

Continuation:
SMILES	NPYLR7 agonist	NPYLR7 agonist max-min
CN(C)[C@H]1[C@H](O)C[C@@H]2CO[C@@H](c3ccccc3)C[C@]21O	4	10
N#Cc1c(-c2ccccc2)cc(-c2ccccc2)[nH]c1=O	13	4
Cc1csc2c(SCC(=O)N3CCN(C)CC3)ncnc12	16	15
COCCn1c(C(=O)Nc2ccc(OC)cc2OC)cc2c(=O)n(C)c(=O)n(C)c21	0	-1
Cc1cc(C)nc(Sc2ccc(NS(=O)(=O)c3ccc(F)c(F)c3)cc2)n1	-6	-7
O=C(Nc1nc2ccccc2s1)[C@@H]1Cc2ccccc2CN1	-1	4
COCCNC(=O)CSc1nc(Cl)cc(N2CCN(C(=O)c3ccc(C(C)(C)C)cc3)C(C)C2)n1 (stereo not drawn)	17	26
